Screening results deposited in PubChem by several laboratories.
CSC inhib: cancer stem cell inhibition | cancer stem cell-like cells viability, luminescence | inhibition, % at 7.5 µM | hit rate 1.1% among 300,000;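 active = mean at 75% or more and at least half the replicates too; inconclusive = mean and replicates disagree; tested in HMLE shEcad cells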;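 note: 0% = median of negative and 100% = median of positive control wells; the first replicate is given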
MT1-MMP act inh: inhibitors of human MT1-MMP activation; HT1080 RFP-PRO-GFP cells, GFP/RFP ratio fluorescence, overnight; percent of plate control window, DMSO zero; P50281; hit rate 0.061% among 360,000; GFP/RFP ratio change, % at 20 µM;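 active = GFP/RFP ratio change of at least 30% with cell ATP level not reduced by more than half and red fluorescence within 50% of control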; note: strong numbers were not always called active
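Assay system – RFP-PRO-GFP reporter HT1080 cells · Compound dosing – single dose of 20 µM compound, 1% DMSO final · Incubation – overnight compound exposure at 37 °C · Measure – GFP/RFP fluorescence ratio · Benchmarks – DMSO wells and RFP-L50D-GFP cells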
PABP polyA inh: PABP-poly(A) binding inhibition | P11940 | PABP-poly(A) RNA binding, fluorescence polarization | inhibition, % at 35 µM | hit rate 1% among 290,000 | AID 2014;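 active = 50% or more with normal probe brightness, or confirmed in later tests; inconclusive = above 50% with abnormal brightness, or retests that disagree; inactive = below 50% or failed in later tests; about a fifth of its hits are not listed in these tables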;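 note: calls also rest on retests at 20 µM and on dose response follow-up; controls were probe without protein and protein plus probe with vehicle; some compounds called inactive have numbers as strong as hits; many hits fall short of the cut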
Target sequence (P11940 whole entry, looked up): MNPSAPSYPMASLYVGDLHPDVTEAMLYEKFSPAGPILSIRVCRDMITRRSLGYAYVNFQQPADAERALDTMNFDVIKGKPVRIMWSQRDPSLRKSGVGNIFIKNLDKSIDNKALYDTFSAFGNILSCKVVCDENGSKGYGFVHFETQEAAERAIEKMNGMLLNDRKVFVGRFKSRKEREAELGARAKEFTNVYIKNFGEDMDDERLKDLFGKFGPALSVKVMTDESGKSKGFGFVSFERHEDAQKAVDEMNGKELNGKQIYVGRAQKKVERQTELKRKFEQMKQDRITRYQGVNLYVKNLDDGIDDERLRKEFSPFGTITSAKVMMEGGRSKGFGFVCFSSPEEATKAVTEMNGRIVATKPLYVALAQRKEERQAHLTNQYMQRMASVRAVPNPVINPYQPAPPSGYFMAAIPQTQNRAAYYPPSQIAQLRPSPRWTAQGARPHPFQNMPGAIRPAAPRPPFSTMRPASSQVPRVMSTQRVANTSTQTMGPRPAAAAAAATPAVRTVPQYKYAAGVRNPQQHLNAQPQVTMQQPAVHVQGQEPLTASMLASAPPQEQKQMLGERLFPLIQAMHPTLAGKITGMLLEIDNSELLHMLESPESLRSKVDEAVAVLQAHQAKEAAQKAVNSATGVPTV
Env fusion inh: HIV envelope-mediated fusion inhibition | AID 651610 | HeLa-JRFL Env/CEM21 cell fusion, luciferase | inhibition, % at 12.3 µM | hit rate 1.1% among 360,000;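 active = mean replicate inhibition score of at least 50 and every replicate individually at or above 50; inconclusive = only one of the two criteria met; inactive = mean below 50 and not all replicates reaching 50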;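 note: 0% = plate neutral controls and 100% = maraviroc near 300 nM; one replicate is shown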
eIF4H FP inh: inhibitors of RNA binding by human eIF4H. Q15056. eIF4H fluorescence polarization binding assay. inhibition, % at 35 µM. hit rate 0.94% among 290,000. AID 2012;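 active = 50% or more with normal probe brightness, or confirmed in later tests; inconclusive = above 50% with abnormal brightness, or retests that disagree; inactive = below 50% or failed in later tests; about a fifth of its hits are not listed in these tables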;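 note: calls also rest on retests at 20 µM and on dose response follow-up; 0% = protein and probe with vehicle and 100% = probe without protein; strong numbers were not always called active; many hits fall short of the cut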
Rce1 inh: inhibitors of yeast Ras-converting enzyme | hit rate 0.27% among 290,000 | calls only | Q03530 | yeast membranes, quenched prenylated peptide cleavage fluorescence | AID 2563;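 active = fall in fluorescence gain of 50% or more versus controls, with final raw signal at or below 3038400; inconclusive = same 50% fall but final raw signal above 3038400; inactive = fall in fluorescence gain under 50%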;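 note: plate controls were neutral control wells for no effect and wells lacking membranes for full effect; tested at 10 µM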
Yeast UUG start: yeast start codon fidelity modulation | S. cerevisiae UUG-firefly luciferase reporter, luminescence/redox ratio | hit rate 0.13% among 350,000 | activity score, % at 18.7 µM;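 active = replicate mean at a twofold rise or more, about +100% in these data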;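 note: firefly luciferase made from a UUG start codon reports start codon fidelity; reporter light over untreated wells divided by growth signal over untreated wells; some hits fall short of that in this replicate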
PABP polyA inh retest: further read-out of PABP polyA inh, marked with its call; inhibition, %; compound at 20 µM; confirmation repeats;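 mean of two retest wells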
MT1-MMP act inh RFP: further read-out of MT1-MMP act inh, marked with its call; RFP signal change, %; measured here: RFP expression control read;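 0 = vehicle wells; hits needed this value within 50% of zero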
* marks the source's active call; other numbers are inactive results; i = inactive; ? = inconclusive; · = no result given.

SMILES	CSC inhib	MT1-MMP act inh	MT1-MMP act inh RFP	PABP polyA inh	Env fusion inh	eIF4H FP inh	Rce1 inh	Yeast UUG start	others
O=C(N=Nc1c(O)[nH]c2ccccc12)c1cccc(S(=O)(=O)Nc2ccccc2Cl)c1	1	-1	4	19	1	-4	i	·
O=C1CC(N2CCN(c3ccccc3Cl)CC2)C(=O)N1c1ccc(F)cc1 (stereo not given)	-7	0	0	-1	-32	3	i	-8
COc1ccccc1CNC(=O)C1CCC(CNS(=O)(=O)c2cccc3cccnc23)CC1 (stereo not given)	-14	5	2	6	-3	-2	i	-1
COc1ccc(C2C=C(c3ccc(C)cc3)Nc3ncnn32)cc1 (stereo not given)	·	-15	-3	13	·	1	i	-18
Cc1c(C)c2c(OCC(=O)NCC(O)c3ccccc3)cc3c(c2oc1=O)CCC(C)(C)O3 (stereo not given)	8	4	-6	10	·	4	i	-19
CCOc1ccccc1OCCCC(=O)Nc1sccc1C(N)=O	-14	-2	-1	14	6	-5	i	·
COc1ccccc1NCC(=O)N/N=C/c1sccc1C	5	-9	-3	6	5	-2	i	·
COc1ccc(S(=O)(=O)N2CCC(C(=O)Nc3cccc(C(C)=O)c3)CC2)cc1C	-5	1	-3	-6	13	0	i	12
Cc1cnc(NC(=O)CCc2ccccc2)s1	·	-4	-12	-1	-31	-3	i	9
COc1ccc(S(=O)(=O)N2CCCCCC2)cc1C(=O)N(C)Cc1ccc(Cl)cc1Cl	20	0	-9	·	37	·	·	-9
Cc1csc(SCC(=O)Nc2cccc(S(=O)(=O)N3CCCC3)c2)n1	-14	3	1	-4	·	-1	i	-20
CCCCC(=O)Nc1ccc(C(=O)Nc2ccc(OC)cc2[N+](=O)[O-])cc1	12	-20	2	-3	-1	?	i	-16
CC(C)CC(=O)Nc1ccc2c(c1)OCO2	11	2	3	0	-9	2	i	·
COc1ccc(C(=O)Nc2ccccc2Cc2ccccc2)c(OC)c1	3	0	-4	14	-2	6	i	·
CCOC(=O)c1cc2c(c(CCO)n1)[C@@H](CCO)N(S(=O)C(C)(C)C)C2 (stereo not given in full)	·	2	4	·	-3	·	·	1
Cc1ccc(C(=O)NCCNC(=O)c2ccccn2)cc1	-15	3	3	-2	2	-5	i	-18
CCc1ccc2[nH]c(=O)c(C(c3nnnn3Cc3ccccc3)N3CCOCC3)cc2c1 (stereo not given)	32	0	2	5	9	-6	i	3
CCn1ncc2c(OCc3ccc(C#N)cc3)cc(C)nc21	-2	-5	-4	6	-93	6	i	·
COc1cc(/C=N/NC(=O)c2ccccn2)cc2c1OCO2	8	-1	1	79*	3	?	i	·	PABP polyA inh retest=113*
Cc1ccc(CNC(=O)Cn2cnc3c(NC(=O)OCc4ccccc4)ncnc32)o1	-14	3	1	·	-5	·	·	-29
CC(=O)c1cc(CN2CCN(Cc3ccccc3)C(CCO)C2)cs1 (stereo not given)	20	0	1	0	-2	-1	i	0
COC(=O)c1c(NC(=O)c2cccc(N3C(=O)CCC3=O)c2)sc2c1CCN(C(C)=O)C2	3	4	5	-8	-13	6	i	2
Cn1c(NC(=O)c2ccc(F)c(F)c2)cc(=O)n(C)c1=O	1	0	5	-10	13	1	i	-13
O=C(O)C1CCCCC1C(=O)NC1CCCCC1 (stereo not given)	·	2	4	-8	-29	1	i	-9
COc1ccc(-c2ncc(CN3CCN(CCC(C)C)C(CCO)C3)cn2)cc1 (stereo not given)	-4	1	-5	1	4	-2	i	·
CN1CCN(C(=O)CSc2ccc(C(F)(F)F)cc2[N+](=O)[O-])CC1	19	5	7	2	·	-5	i	·
O=C(CSc1nc2ccccc2[nH]1)N/N=C/C=C\c1ccccc1[N+](=O)[O-]	18	2	2	5	-26	-14	i	·
CCOC(=O)C1CCN(S(=O)(=O)c2c(C)[nH]c(=O)[nH]c2=O)CC1	-2	-1	3	-1	·	9	i	-14
O=C(NCc1ccccc1)c1ccc(Cl)nc1	-4	1	6	4	-143	9	i	·
O=C1C2CC=CCC2C(=O)N1c1ccc(NCCc2ccccc2F)c([N+](=O)[O-])c1 (stereo not given)	-10	9	3	-4	-20	-2	i	-6
N#Cc1ccc(C(=O)Nc2ccc([N+](=O)[O-])cc2)c(F)c1	·	6	-1	-7	-30	4	i	·
COc1ccc(Cc2nc3ccc(C(=O)NCCn4ccnc4C)cc3o2)cc1OC	10	0	4	-3	-1	1	i	0
CCOC(=O)Cn1nc(-c2ccccc2)ccc1=O	-12	-1	1	-9	-55	-11	i	·
COc1cccc(C2Nc3ccccc3C(=O)N2c2ccc(F)cc2)c1O (stereo not given)	-4	-1	1	1	-11	-2	i	-21
O=C(NCCCN1CCc2ccccc2C1)C1CCN(S(=O)(=O)N2CCCC2)CC1	-7	-7	-4	-4	·	7	·	4
O=C(CCS(=O)(=O)c1ccccc1)NCCS(=O)(=O)c1ccccc1	-5	3	3	-4	26	3	i	·
C/C=C(/C)C(=O)O[C@@H]1c2c(ccc3ccc(=O)oc23)OC(C)(C)[C@@H]1OC(C)=O	-4	0	-1	·	13	·	·	7
O=C(Nc1ccsc1C(=O)NC1CCCCC1)c1ccc(F)cc1	8	4	1	-1	-110	-11	i	-17
O=C(c1ccc(S(=O)(=O)N2CCCC2)cc1)N1CCC(CN2C(=O)c3cccc4cccc(c34)C2=O)CC1	3	-14	-10	2	10	8	i	-10
CC1(C(=O)NS(=O)(=O)c2ccc(Cl)s2)CCN1C(=O)Cc1ccccc1Cl (stereo not given)	·	0	2	·	-10	·	·	-8

6 compounds already listed, ordered by length of the SMILES, highest first.
SMILES	CSC inhib	MT1-MMP act inh	MT1-MMP act inh RFP	PABP polyA inh	Env fusion inh	eIF4H FP inh	Rce1 inh	Yeast UUG start	others
C/C=C(/C)C(=O)O[C@@H]1c2c(ccc3ccc(=O)oc23)OC(C)(C)[C@@H]1OC(C)=O	-4	0	-1	·	13	·	·	7
O=C1C2CC=CCC2C(=O)N1c1ccc(NCCc2ccccc2F)c([N+](=O)[O-])c1 (stereo not given)	-10	9	3	-4	-20	-2	i	-6
N#Cc1ccc(C(=O)Nc2ccc([N+](=O)[O-])cc2)c(F)c1	·	6	-1	-7	-30	4	i	·
COc1cccc(C2Nc3ccccc3C(=O)N2c2ccc(F)cc2)c1O (stereo not given)	-4	-1	1	1	-11	-2	i	-21
Cn1c(NC(=O)c2ccc(F)c(F)c2)cc(=O)n(C)c1=O	1	0	5	-10	13	1	i	-13
O=C(Nc1ccsc1C(=O)NC1CCCCC1)c1ccc(F)cc1	8	4	1	-1	-110	-11	i	-17

New compounds follow
SMILES	CSC inhib	MT1-MMP act inh	MT1-MMP act inh RFP	PABP polyA inh	Env fusion inh	eIF4H FP inh	Rce1 inh	Yeast UUG start	others
CCn1c(=O)cc(SCC(=O)N(C)Cc2ccccc2)c2ccccc21	-7	8	5	4	36	1	i	1
COc1cc(/C=C/C(=O)OCC(=O)NC(=O)NC(C)(C)C)ccc1OCC#N	-12	2	4	13	·	0	i	·
COC(=O)c1ccc(C(c2c(N)n(CC(C)C)c(=O)[nH]c2=O)N2CCN(c3ccccc3)CC2)cc1 (stereo not given)	-6	2	2	-7	-21	1	i	-9
Cn1c(=O)oc2cc(S(=O)(=O)Nc3ccc(O)cc3)ccc21	-9	-2	1	-7	-8	7	i	-9
COc1ccc(N(CC(=O)Nc2cc([N+](=O)[O-])ccc2C)S(C)(=O)=O)cc1OC	11	4	4	0	6	-13	i	4
CN(CC(=O)Nc1ccc(Cl)c(C(F)(F)F)c1)C(=O)CCN1C(=O)C2CC=CCC2C1=O (stereo not given)	1	4	-5	·	34	·	i	-5
CC(=O)NC(Cc1ccc(C)cc1)C(=O)NC1CCN(c2ncccc2[N+](=O)[O-])CC1 (stereo not given)	-15	4	5	-3	·	-4	i	·
Cc1c(/N=C(\[O-])Nc2ccc(Br)cc2)sn[n+]1C	1	1	-6	1	-61	-5	i	-38
Fc1ccccc1/C=N/Nc1ncnc2ccccc12	2	-5	5	?	-58	0	i	·
CCCN(C(=O)CSCC(=O)Nc1cccc(C)c1)c1c(N)n(Cc2ccccc2)c(=O)[nH]c1=O	·	-3	-5	-2	·	-5	i	0
Cc1cc(C)c2nc(N3C(=O)C(O)=C(C(=O)c4ccco4)C3c3ccc(O)cc3)sc2c1 (stereo not given)	29	0	2	·	·	·	·	8
CC(C)(C)SCCNC(=O)c1ccc(Cl)c([N+](=O)[O-])c1	-11	-5	-1	1	3	-2	i	·
CCN(c1ccc(OC)cc1)S(=O)(=O)c1nnc(NC(=O)COc2ccc(F)cc2)s1	35	13	-4	·	-9	·	i	-17
Cc1ccccc1C(=O)N1CCC(C(=O)N2CCN(S(=O)(=O)c3ccccc3F)CC2)CC1	-5	3	-1	10	5	3	i	15
O=C(NCCc1c[nH]c2ccccc12)C(=O)NCC1OCCN1S(=O)(=O)c1ccc(Cl)cc1 (stereo not given)	1	0	-19	0	33	0	i	-23
CCCCC1CCc2[nH]nc(C(=O)O)c2C1 (stereo not given)	-9	-2	2	·	3	·	·	-19
CCOC(=O)CN1CC23C=CC(O2)C(C(=O)Nc2ccc(F)cc2)C3C1=O (stereo not given)	0	2	5	-4	-39	-2	i	-7
C=C(C)COc1ccc(C2NC(=O)c3ccccc3O2)cc1OCC (stereo not given)	-11	-2	-3	12	-9	-7	i	-2
CC(C)(C)NC(=O)NC(=O)COC(=O)C1c2ccccc2Oc2ccccc21	39	5	-2	-3	9	3	i	4
O=C(NCc1ccccc1)N1CCN(CCO)CC1	-9	-3	-2	·	2	·	i	-11
O=C(Cn1nnc2ccccc2c1=O)NCc1ccc(Cl)cc1	-2	4	3	2	1	4	i	·
CCOC(=O)C1(C)CCCN1C(=O)c1csnn1 (stereo not given)	·	-1	3	·	-12	·	·	-2
COc1ccc(Br)cc1CNC(=O)c1ccc2c(c1)N(C)CCS2	18	-2	-5	-5	-13	-15	i	-12
NC(=O)CSc1nnnn1-c1ccccc1Cl	-11	0	0	5	-11	1	i	-9
C=CCN(C(=O)CSC1=NC(=O)CN1C(C)=O)c1nc(C)c(-c2ccccc2)s1	28	-12	-4	4	10	5	i	·
Cc1cc(C)c2c(-n3cccc3)c(NC(=O)OCc3ccccc3)sc2n1	2	0	-4	-13	·	-2	i	-14
CCN(C(=O)CSc1nnc(-c2ccccc2)o1)c1c(N)n(Cc2ccccc2)c(=O)[nH]c1=O	-5	7	6	-1	-8	-6	i	2
COc1ccccc1CNC(=O)c1cc2c(s1)CS(=O)(=O)C2	-2	1	-1	10	·	-7	i	-10
COc1ccc(CCNC2CC(=O)N(CCc3ccccc3)C2=O)cc1 (stereo not given)	-4	2	1	4	-31	-10	i	-9
Cc1cc(-c2c(C)[nH]n(-c3ccccc3)c2=O)n(-c2ccccc2)n1	-1	-2	4	-3	-10	0	·	-16
Cc1nc(C)c2c(c1C(F)(F)F)-c1ccccc1C2(F)F	-2	0	3	6	-30	-1	i	5
Cc1nc2ccc(S(=O)(=O)NCC(=O)O)cc2s1	-1	6	1	6	·	2	i	-10
COc1ccc(CC(=O)OCC(=O)Nc2cccc(Br)c2)cc1	·	0	2	-2	5	16	i	·
COc1cc(C)c(C)cc1S(=O)(=O)NC1CC(C)(C)NC(C)(C)C1	10	3	1	10	6	-9	·	-16
O=C(NCC(c1ccc(F)cc1)N1CCOCC1)c1ccc(-c2ccccc2)cc1 (stereo not given)	-12	-4	-2	·	2	·	·	-19
O=C(N/N=C/c1ccc(-c2cccc(C(F)(F)F)c2)o1)c1cccc(F)c1	58	-1	-5	-4	-4	-2	i	-12

Some of the compounds tested; count on the stated rates, not on these rows.
